Screening results (PubChem BioAssay)
Calb FLC – C. albicans growth inhibition with fluconazole, primary screen, CaCi-2 strain, Alamar Blue fluorescence; C. albicans CaCi-2 (fluconazole-resistant clinical isolate) + fluconazole, 48 h; growth inhibition, % (test concentration not listed); 300,000 tested, 0.57% active;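 active = most replicates above 75%; inconclusive = exactly half above 75%; inactive = most below 75%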;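 note: all wells also contain fluconazole at 8 µg/ml as a sub-toxic cotreatment; 0% = median of DMSO wells and 100% = median of geldanamycin control wells; wells of about 8 µL received 7.5 nL stock; the first replicate is given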
A1 inh – caspase 3/7 activation in MEF A1-2A-BIM cells, primary screen, A1 inhibitor project, cell-based, luminescence, HTS. Caspase-Glo 3/7 luminescence, 3 h; percent of clofoctol response, vehicle zero. caspase activation, % (concentration not given with the values). 330,000 tested, 0.066% active;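 active = over half of replicate activation scores above 10%, or exactly half above 10 with the replicate mean above 10; inconclusive = replicate mean below 10 yet half the replicates above 10; inactive = over half of replicates below 10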;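 note: wells of about 30 µL received 50 nL stock; many hits fall short of the cut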
RanGTP-Imp inh – inhibitors of RanGTP-importin-beta interaction, primary screen, biochemical, FRET, CFP-Ran, YFP-importin-beta, homogeneous; Ran GTPase (GTP-bound) - importin-beta complex; cell-free CFP-Ran/YFP-importin-beta FRET ratio; inhibition, % (no concentration beside the values); 300,000 tested, 1.1% active;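 active = most replicates above 15%; inconclusive = exactly half above 15%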;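 note: 0% = DMSO wells and 100% = Ran loaded with GDP instead of GTP; wells of about 40 µL received 100 nL stock; the first replicate is given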
Vif TR-FRET – inhibitors of Vif binding to APOBEC3G peptide, primary screen, biochemical, TR-FRET, GST-Vif 1-94, biotin-A3G peptide, dose response retest (AID 1117319); one-dose inhibition, %; IC50 in µM for titrated hits; 260,000 tested, 0.57% active; TR-FRET GST-Vif / biotin-A3G peptide binding; higher % means a stronger effect; test concentration not given here; strong numbers were not always called active;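 active = above the screen mean plus three standard deviations and confirmed in dose response; inconclusive = results disagree or hit not tested in dose response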;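 note: Vif residues 1-94 fused to GST binding biotinylated APOBEC3G peptide 110-148; 0% = full assay without inhibitor and 100% = GST in place of GST-Vif; retest series ran down from 100 µM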
T cruzi repl – inhibitors of intracellular T. cruzi growth, primary screen, luminescence, NIH3T3 host cells; AID 1885, 2009; 300,000 tested, 1.4% active; T. cruzi beta-gal in NIH3T3, 90 h; inhibition, % (no concentration beside the values);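 active = mean inhibition across valid replicates above about 55%, limit read from the data; inconclusive = mean below that limit but half or more replicates reach it; inactive = mean below it, under half of replicates reach it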;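 note: signal also drops with host cell toxicity which is not excluded here; 0% = plate median of DMSO wells and 100% = zero luminescence signal; higher percent means less beta-gal luminescence so fewer parasites; stock transfer was 50 nL into about 50 µL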
AF4-AF9 inh – inhibitors of AF4 peptide binding to AF9, primary screen, biochemical, AlphaScreen, biotin-AF4 peptide, FLAG-AF9, single point. Protein AF-9 (Homo sapiens), P42568. inhibition, % at 10 µM. 350,000 tested, 0.47% active;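 active = every replicate reaching a set inhibition limit, whatever the replicate mean, cut at about 25% in these data; inconclusive = mean inhibition reaches that limit but some replicates miss it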;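 note: 0% = plate neutral control median and 100% = total signal loss; the record names both 10 and 1 µM as test concentration; the first replicate is given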
Target sequence (P42568 whole entry, looked up): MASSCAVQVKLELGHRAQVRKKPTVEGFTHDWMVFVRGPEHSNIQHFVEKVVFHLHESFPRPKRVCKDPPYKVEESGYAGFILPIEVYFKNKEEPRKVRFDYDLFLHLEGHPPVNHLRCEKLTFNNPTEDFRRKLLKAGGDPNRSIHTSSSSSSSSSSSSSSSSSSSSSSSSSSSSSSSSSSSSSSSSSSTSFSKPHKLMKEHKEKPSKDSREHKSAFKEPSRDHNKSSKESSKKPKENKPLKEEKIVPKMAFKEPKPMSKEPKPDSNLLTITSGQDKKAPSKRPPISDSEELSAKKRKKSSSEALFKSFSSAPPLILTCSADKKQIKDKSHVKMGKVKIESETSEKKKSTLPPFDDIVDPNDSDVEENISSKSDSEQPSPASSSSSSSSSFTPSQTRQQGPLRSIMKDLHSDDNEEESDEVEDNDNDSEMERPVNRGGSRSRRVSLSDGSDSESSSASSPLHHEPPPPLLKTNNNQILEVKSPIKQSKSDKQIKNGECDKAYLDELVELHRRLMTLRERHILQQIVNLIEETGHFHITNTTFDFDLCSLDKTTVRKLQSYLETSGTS
Ecoli rRNA inh – reduced GFP signal of wild-type E. coli, primary screen, bacterial rRNA inhibitor project, GFP/RFP fluorescence, OD600, single point. E. coli WT GFP vs humanized-ribosome RFP mutants, 24 h; active compounds read low; DMSO median 0, no signal -100. GFP signal change (wild-type ribosome), % (no concentration beside the values). 350,000 tested, 1.6% active;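 active = significant combined selectivity score with lowered wild-type GFP, culture density cut under 30%, mutant RFP and density less affected; inactive = any of these conditions unmet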; note: one replicate is shown; some compounds called inactive have numbers as strong as hits
Beta cell apopt – inhibitors of cytokine-induced beta cell apoptosis, primary screen, luminescence; INS-1E cytokine-induced death, ATP luminescence, 48 h; percent of positive-control rescue, neutral wells zero; protection from apoptosis, % (test concentration not listed); 300,000 tested, 0.8% active;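 active = all replicates at 75% or more, or half of them and the mean; inconclusive = half reach 75% but not the mean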;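 note: 0% = cytokine-treated negative control wells and 100% = positive control rescue; higher means more ATP so stronger rescue from cytokine killing; wells of about 40 µL received 100 nL stock; the first replicate is given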
Ecoli rRNA inh OD600 – second read-out of Ecoli rRNA inh, no call of its own (marks repeat the call); OD600 change, %; measured here: OD600 growth;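 optical density of the mix in the first replicate; 0 = DMSO median and -100 = no signal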
Ecoli rRNA inh RFP – recorded beside Ecoli rRNA inh, whose call it bears; RFP signal change, %; measured here: RFP humanized mutant strains;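 first replicate; 0 = DMSO median and -100 = no signal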
The depositor's hits bear a star; ? = inconclusive; . = no result given; & = joins results of further samples.

SMILES	Calb FLC	A1 inh	RanGTP-Imp inh	Vif TR-FRET	T cruzi repl	AF4-AF9 inh	Ecoli rRNA inh	Ecoli rRNA inh OD600	Ecoli rRNA inh RFP	Beta cell apopt
Cc1ccc(-c2noc(CCC(=O)NCC3CCN(Cc4cccc(C)c4)CC3)n2)cc1	-11	-0.4	-2.9	-6%&-4%	44	.	.	.	.	-1
CCn1c(SCC(=O)N2CCCC(C)C2)nnc1-c1ccc(S(=O)(=O)N2CCN(C)CC2)cc1 (stereo unspecified)	10	0.0	-2.5	15%	3	.	.	.	.	5
COc1ccc(NC(=O)Cn2nnc(C(=O)NCCc3ccc(OC)c(OC)c3)c2N)c(OC)c1	0	-0.1	7.4	2%	-5	-1.8	-5	1	-3.6	2
CC(=O)Nc1ccc(CN2CCC(Oc3ccc(C(=O)N4CCCC4)cc3)CC2)cc1	4	1.1	-1.4	5%	-10	0.4	9	8	-1.7	-3
CCOC(=O)c1c(C)n(C)c2ccc(OCC(O)CN3CCCCCC3)cc12 (stereo unspecified)	-5	0.1	0.7	-1%	5	0.5	-7	0	3.6	-3
O=C(COc1ccc(Cl)cc1)NCCCNC(=O)c1ccncc1	-2	-0.4	-0.6	.	-2	2.9	4	6	1.4	-2
Cc1ccc(-c2ccc(=O)n(Cc3ccc(F)cc3)n2)cc1	-4	0.9	-3.3	-7%	-4	-2.6	-6	-44	-0.9	-10
CC(Sc1nnc(-c2ccccc2Br)o1)C(=O)N1CCOCC1 (stereo unspecified)	-1	0.7	-0.8	-4%	-4	1.1	2	-1	0.1	.
COc1cc(NC(=O)COC(=O)Cc2ccc(-c3ccccc3)cc2)cc(OC)c1	11	0.2	-2.7	-7%	4	-2.4	.	.	.	-10
O=[N+]([O-])c1cccc(-c2noc3c2-c2nc(Cc4cccc5ccccc45)sc2CC3)c1	9	0.2	7.4	.	17	-7.1	3	0	-11	.
CCc1cc(SC#N)cc(CC)c1NC(=O)CCl	-24	-0.1	2.6	-1%	2	.	.	.	.	6
C/C(N)=C(/C#N)C(=O)CSc1nnc(NC(C)C)s1	0	0.9	-0.4	9.7µM*	13	.	.	.	.	-5
O=C(CN1CCCCC1)N1CCN(c2ccccc2)CC1	4	0.7	-3.8	3%	-29	-2.7	-5	9	1.5	-6
O=C(Nc1ncc(Cc2ccccc2Cl)s1)c1ccc(-c2cccc([N+](=O)[O-])c2)o1	3	0.0	-4.3	.	60*	.	.	.	.	12
CCOC(=O)C1(C(F)(F)F)N=C(C(F)(F)F)Nc2cc(C)c(C)cc21 (stereo unspecified)	13	2.4	2.6	12%	-2	-3.9	-16	-1	12	-3
C=CCNC(=O)/C(=C/c1cccc([N+](=O)[O-])c1)NC(=O)c1ccccc1	17	-0.3	.	-10%	-3	-2.3	26	15	-0.3	2
Cn1c(CNC(=O)CNC(=O)Cc2ccccc2)cc(=O)n(C)c1=O	0	0.5	1.3	-7%	-14	-3.6	9	20	0.0	2
Cc1c(C(=O)O)sc2nc(C)n(C)c(=O)c12	?	-0.1	0.7	1%	-8	.	.	.	.	-4
COC(=O)c1ccc(C2c3c(n[nH]c3C)C(=O)N2c2ccc(C)cc2)cc1 (stereo unspecified)	0	-0.2	-3.7	-3%	10	3.9	-31	-41	-7.0	-2
O=c1c2ccccc2ncn1-c1ccccc1C(F)(F)F	-11	-0.2	-0.1	.	-7	-2.7	10	7	-3.7	-5
Fc1ccc2c(c1)C(c1cccnc1)=NNC(c1cccs1)=N2	?	?	-0.9	3%	-8	.	.	.	.	-11
Cc1cccc(CCNC(=O)C2CCC(=O)N(Cc3ccccc3F)C2)n1 (stereo unspecified)	3	1.0	-1.6	1%	5	-0.6	1	-2	1.5	1
CN(C)C(CNC(=O)Nc1cccc(Cl)c1)c1cccnc1 (stereo unspecified)	-7	0.6	4.1	5%	4	.	.	.	.	.
COc1ccc(-c2noc(C3CCCN(C(=O)c4cccc(C)c4)C3)n2)cc1 (stereo unspecified)	-11	0.0	-0.6	-2%	15	8.0	-41	-69	-8.5	0
Cc1nc2cc(Cl)ccc2n1CCO	2	-0.3	-5.0	3%	-13	1.3	16	6	-5.9	-2

(further entries)
SMILES	Calb FLC	A1 inh	RanGTP-Imp inh	Vif TR-FRET	T cruzi repl	AF4-AF9 inh	Ecoli rRNA inh	Ecoli rRNA inh OD600	Ecoli rRNA inh RFP	Beta cell apopt
CN(C)C(=S)Nc1cccc(C(F)(F)F)c1	-2	0.7	1.7	-6%	-2	-6.4	2	6	-0.1	-4
Cc1ccc(S(=O)(=O)NC(=O)Nn2c(C)nnc2C)cc1	-8	-0.2	-7.5	14%	-3	.	.	.	.	3
Cc1cc(C(=O)Cn2cc(C(F)(F)F)ccc2=O)c(C)n1-c1ccccc1	-10	-0.3	2.5	8%	5	3.5	-5	-3	-10	-4
COc1cc2c(cc1OC)C(c1cc3ccccc3oc1=O)=NC(C)(C)C2	-1	0.4	1.4	4%	14	-1.5	.	.	.	1
CCOc1cccc(CN2CCC(N3CCC(C(=O)NCC4CCCO4)CC3)CC2)c1 (stereo unspecified)	-4	1.2	0.8	.	8	5.2	14	4	3.0	-4
CC(=O)c1cccc(NC(=O)CSc2ccc(-c3sc(C)nc3C)nn2)c1	-6	0.0	1.5	-30%	15	1.0	7	-1	7.1	-2
CCOc1ccccc1-c1nc2c(C(C)(C)C)nn(C)c2c(=O)[nH]1	1	-0.7	0.0	9%	-7	.	.	.	.	-10
CSc1ccccc1OCc1cc(C(=O)NC(C)c2cnn(C)c2)no1 (stereo unspecified)	-9	0.1	0.5	-3%	-5	0.2	3	8	1.2	-1
Cc1cc(C(=O)N(C)CC(=O)Nc2cccc(F)c2)no1	1	0.3	2.6	2%	-1	-1.4	7	10	-5.1	-2
O=C(CN1CCCc2ccccc21)NC(=O)NCc1ccccc1	-4	0.1	6.6	4%	0	4.4	9	8	7.8	-2
Cn1c2ccc(F)cc2c2nnc(SCC(=O)Nc3cccc(O)c3)nc21	1	0.6	3.5	.	-4	-8.6	-11	-5	-0.8	-6
CC(C)CCn1c(=O)c2sccc2n2c(CCCC(=O)N3CCN(c4ccccn4)CC3)nnc12	-21	0.8	4.1	.	2	3.6	1	4	-1.6	6
COCCCn1c(SCC(=O)Nc2ccc(NC(=O)c3ccco3)c(OC)c2)nc2ccccc2c1=O	.	-0.2	1.9	1%	-6	.	.	.	.	8
CCN(CC)S(=O)(=O)c1cccc(NC(=O)COC(=O)/C=C/c2ccco2)c1	1	0.4	-0.9	?	10	6.1	16	5	4.7	-4
CC(=O)Oc1ccc(/C=C2/CCc3ccccc3C2=O)cc1	-9	-6.6	3.0	11%	22	-2.1	-31*	-10*	-1.7*	-4
CCOC(=O)N/N=C/c1cc(OC)c(O)c(OC)c1	-2	0.7	9.1	0%	0	-5.3	.	.	.	.
CCN(CC(=O)Nc1ccccc1C(F)(F)F)C(=O)c1oc2ccc(OC)cc2c1C	-3	1.4	-1.0	4%	-3	-1.9	-6	-4	0.0	-3
COc1cccc(NC(=O)Cn2c3ccccc3c3nc4n(c(=O)c32)CCS4)c1	15	1.2	4.7	?	11	-2.6	11	0	1.0	-5
COc1ccc(OC)c(NC(=O)C2=C(C)Nc3ncnn3C2c2cccs2)c1 (stereo unspecified)	-29	0.9	3.2	-6%	2	.	.	.	.	2
COc1ccccc1NC(=O)Cc1noc(CSc2cccc[n+]2[O-])n1	6	1.6	?	1%	-6	.	.	.	.	-1
O=C(CCc1c[nH]c2ccccc12)NCc1cccc(Cl)c1	-2	-0.5	2.8	.	6	1.0	-8	-11	2.7	0
Cc1nonc1CN(C)C(=O)CC1C(=O)NCCN1Cc1c(F)cccc1Cl (stereo unspecified)	3	1.1	-2.9	-2%	5	-1.2	11	8	3.5	6
CCC1Oc2ccccc2N(CC(=O)NCc2cccs2)C1=O (stereo unspecified)	-5	0.0	-0.5	3%	1	-1.9	7	3	0.5	2
COc1cccc(C2CC(C(F)(F)F)n3nc(C(=O)NCc4cccnc4)cc3N2)c1 (stereo unspecified)	-13	0.8	-2.1	13%	-24	.	.	.	.	3
O=C(OCC#CCSc1nnc(-c2cccc3ccccc23)o1)c1ccco1	-5	-0.2	-3.1	29%	9	.	-8	-8	3.3	4

Profiles as entered above. Order of values: Calb FLC, A1 inh, RanGTP-Imp inh, Vif TR-FRET, T cruzi repl, AF4-AF9 inh, Ecoli rRNA inh, Ecoli rRNA inh OD600, Ecoli rRNA inh RFP, Beta cell apopt
O=C(OCC#CCSc1nnc(-c2cccc3ccccc23)o1)c1ccco1 reads -5, -0.2, -3.1, 29%, 9, ., -8, -8, 3.3, 4
CCOc1ccccc1-c1nc2c(C(C)(C)C)nn(C)c2c(=O)[nH]1 reads 1, -0.7, 0.0, 9%, -7, ., ., ., ., -10
CC(=O)Oc1ccc(/C=C2/CCc3ccccc3C2=O)cc1 reads -9, -6.6, 3.0, 11%, 22, -2.1, -31*, -10*, -1.7*, -4

The results go on:
SMILES	Calb FLC	A1 inh	RanGTP-Imp inh	Vif TR-FRET	T cruzi repl	AF4-AF9 inh	Ecoli rRNA inh	Ecoli rRNA inh OD600	Ecoli rRNA inh RFP	Beta cell apopt
CC[N+]1(CC)CC2CCC(C)(C1)C2(C)C (stereo unspecified)	-7	0.5	?	2%	0	-0.3	16	15	2.0	-6
CCc1nnc(NC(=O)Cc2cc(OC)c(OC)c(OC)c2)s1	-3	0.9	?	.	-11	-15	-2	4	-1.8	-3
O=C(NC1CCCCCC1)C(=S)N1CCCC1	-5	0.2	-1.4	14%	-5	-1.6	35	18	4.8	0
Cc1cccc2cc(CN(CC3CCCO3)C(=O)c3ccncc3)c(=O)[nH]c12 (stereo unspecified)	5	0.7	2.2	-2%	-17	.	.	.	.	-4
COc1cc2c(c(O)c1OC)C(=O)C(OC)CCC2 (stereo unspecified)	-4	0.5	3.0	9%	-15	.	.	.	.	1
Cc1c(C(=O)NCC2CCCO2)sc2nc(-c3ccccc3)cn12 (stereo unspecified)	-7	0.2	1.4	1%	-1	-11	-5	-21	-8.0	-6
COCCNC(=O)CCc1nnc(C2(c3ccc(Cl)cc3)CCC2)o1	5	-0.8	5.6	-7%	-9	-1.1	20	10	-1.1	-1
O=C(N1CCOCC1)N1CCN(S(=O)(=O)c2ccc(Cl)cc2)C1	0	0.1	-0.4	.	-12	-0.9	5	7	-0.2	0
CCCCc1c(O)nc2n(c1=O)CCS2	4	0.6	-1.7	-3%	4	.	.	.	.	-3
CCCCCn1c(=O)c2ccccc2n2c(=S)[nH]nc12	-3	0.1	1.2	-13%	12	-1.7	-12	-16	-2.1	-1

Some of the compounds tested; rates above refer to the full screens.
